# 2A firefly = Primary qHTS Assay for Foot and Mouth Disease Virus Antivirals against NCGC Sytravon and CBC Compound Libraries: Firefly Luciferase Signal. HEK cells with a luciferase reporter of 2A StopGo recoding. AID 1745856, 2022. 120,000 tested, 0.23% active. Potency, µM (doses to about 57.5 µM), without a hit: at the top dose signal change, negative = less light; active = well fitted falling curve with a large enough effect; inconclusive = small, poorly fitted or top-dose-only effect; inactive = no such curve, though single readings can be large or run the other way; note: nearly all actives have a fitted effect of over 60% in size; overnight with compound
# StopGo RLuc = Primary qHTS Assay for Foot and Mouth Disease Virus Antivirals against NCGC Sytravon and CBC Compound Libraries: Renilla Luciferase Signal | 120,000 tested, 0.32% active | AID 1745857, 2022 | HEK cells with a luciferase reporter of 2A StopGo recoding | Potency, µM (series often up to 57.5 µM), without a hit: at the top dose signal change, negative = less light; active means well fitted falling curve with a large enough effect; inconclusive means small, poorly fitted or top-dose-only effect; inactive means no such curve, though single readings can be large or run the other way; note: nearly all actives have a fitted effect of over 55% in size; overnight with compound
# * hit, by the source's call; ? = inconclusive; & = joins results of further samples; [ ] = remark or other dose. % is set by controls: 0 for no effect and ±100 for the full control effect; potency is the fitted concentration of half-maximal effect. An excerpt; rates above refer to the full screens.
Compound	2A firefly	StopGo RLuc
CCOC(=O)c1c(C)[nH]c(C(=O)C(C)Nc2ccccc2OC)c1C (stereo not given)	0%	-16%
COc1cc2c(cc1OC)C(COc1cc(C)cc(C)c1)N(C(=O)c1ccc(S(=O)(=O)N3CCCC3)cc1)CC2 (stereo not given)	-24%	-2%
Cc1nn(CCC(=O)NC(C)C)c(=O)c2nn(-c3ccccc3)c(C)c12	-12%	2%
O=C(Cn1ncc2c3ccccc3n(Cc3cccc(Cl)c3)c2c1=O)NCc1cccs1	-13%	5%
Cc1cc2n(n1)CCC(=O)N2Cc1ccc(C(=O)Nc2cccc(C(F)(F)F)c2)cc1	12%	16%
Cc1ccc(S(=O)(=O)n2nc(-c3ccc(Cl)cc3)nc2NCc2ccccc2)cc1	1%	-5%
O=C(COc1nc2ccccc2nc1N1CCOCC1)Nc1ccccc1	188%[activator]	10%
Cc1ccccc1C(=O)Nc1nnc(SCc2cc(=O)n3ccccc3n2)s1	-22%	-14%
Cc1ccc(C(=O)Oc2cccc(C)c2C)cc1Br	3%	-2%
COC(=O)c1cccc(C(=O)NCc2ccccc2)c1	55%[activator]	18%
Cc1ccc2[nH]c(C)c(CCN(Cc3cccs3)C(=S)NC(C)(C)C)c2c1	-14%	84%[activator]
CCOC(=O)c1cccc(NC(=O)c2sc3nc[nH]c(=O)c3c2C)c1	106%[activator]	-16%
Cc1cccc(C(=O)N2CCN(Cc3nc(N)c4ccccc4n3)CC2)c1	-11%	-6%
CCC(=O)N/C(N)=N/c1nc(C)c2cc(C)ccc2n1	94%[activator]	1%
Cc1cc(Cl)ccc1NC(=O)CSc1nc2cc([N+](=O)[O-])ccc2o1	61%[activator]	94%[activator]
Cc1cc2nc(N(Cc3cccnc3)C(=O)c3ccc(Cl)s3)sc2cc1C	1%	-11%
CC(C)(C)NC(=O)CNC(=O)CCc1ncc(-c2ccc(Cl)cc2Cl)o1	45%[activator]	-1%
CCN(CC(=O)NC1CCCC1)C(C)c1ccc(C#N)cc1 (stereo not given)	1%	20%
Nc1nccnc1C(=O)NCCc1cccnc1	0%	10%
CCCC(N)CCC	-9%	4%
N=C1N=C(N)c2cc3ccccc3cc21	32%[activator][115 µM]	-9%[114 µM]
CCn1c(CNC(=O)c2ccc(OC)cc2)nnc1SCC(=O)c1ccc(Br)cc1	-3%	-3%
COc1ccc(N2C(=O)Cc3cc(OC)c(OC)cc3C2c2ccc(F)cc2)cc1 (stereo not given)	-8%	-6%
COC(=O)\C(=C/C=C/C=C/N(C)C)C(C)=O	4%	9%
Cc1ccccc1SCC(=O)NCc1ccccc1Cn1cccn1	6%	29%
CCC1CCC(C(=O)Nc2ccc(Br)c(C)c2)CC1 (stereo not given)	155%[activator]	21%
CCOC(=O)c1c(C)[nH]c(C(=O)Cn2nnc(-c3cccc(C(F)(F)F)c3)n2)c1C	3%	8%
O=C(NCCCCc1ccccc1)c1cc2ccccc2oc1=O	4%	-3%
N#Cc1ccc(CNCc2ccc(CN3CCCC3)cc2)cc1	-23%	-10%
CC(=O)Nc1c(-c2cc(=O)oc3cc(C)c(Cl)cc23)oc2ccccc12	-5%	-7%
Cc1ccc2oc(-c3ccc4ccccc4c3)c(C)c(=O)c2c1	13%	-4%
Cc1cc(NC(=O)c2oc3c(c2C)-c2[nH]ncc2CC3)ccc1Br	72%[activator]	-8%
O=C(Nc1ccc(-c2nnnn2C2CC2)cc1)NC1CCCCCC1	183%[activator]	17%
O=C(NC1CCCCC1)c1ccc2c(c1)N(Cc1ccc(Cl)cc1)C(=O)c1ccccc1S2=O (stereo not given)	-7%	18%
Cc1cc(C(=O)c2cc3ccccc3o2)c(C)s1	51%[activator]	23%
CCOC(=O)c1c(S(=O)(=O)N2CCC(C(=O)NCc3cccc(OC)c3)CC2)c(C)n(C)c1C	-16%	36%[activator]
CCOC(=O)c1ccc(NC(=O)c2sc3ccccc3c2Cl)cc1	26%	-7%
CCOc1ccc(C2C(C(=O)Nc3ccc(F)cc3)=C(C)NC3=C2C(=O)CC(C)(C)C3)cc1 (stereo not given)	-4%	112%[activator]
O=C(NC1CCCCC1)C1CCN(C2=NS(=O)(=O)c3ccccc32)CC1	-10%	-3%
Cc1c(-c2ccc(F)cc2)[n+](=O)c(-c2ccc(Cl)cc2)c(C)n1[O-]	12%	0%
O=C(NCC(F)(F)F)C1CCN(c2ncnc3sc4c(c23)CCC4)CC1	?	?
COc1ccc(OC)c(/C=C/C(=O)Nc2ccc(C(=O)OCCC(C)C)cc2)c1	19%&-6%	6%&7%
CCOC(=O)N1CCN(c2ccc(NS(=O)(=O)c3cc(F)ccc3F)cc2C(=O)O)CC1	7%	6%
Cc1cc(C(=O)Nc2c(C)nn(Cc3ccc(F)cc3)c2C)no1	1%	4%
CCC(=O)Nc1nc2c(OC)cc(NS(=O)(=O)c3cc(F)ccc3F)cc2s1	24%	0%
CC(C)CCC(=O)Nc1ccc(Cl)c(C(N)=O)c1	36%[activator]	24%
CN(CC(=O)Nc1ccc2[nH]c(=O)[nH]c2c1)Cc1ccc2c(c1)OCO2	15%	-7%
Clc1ccc(CN2CCc3ccccc3C2)cc1	25%	-5%
CCOc1ccccc1-n1nnc(S(=O)(=O)c2ccc(C)cc2)c1N	-23%	44%[activator]
Cc1ccccc1CC(=O)Nc1cc(S(=O)(=O)N2CCCCC2)ccc1N1CCN(C)CC1	-20%	0%
COc1nc2cc(C)c(C)cc2nc1C(=O)Nc1c(C)cccc1C	-2%	-13%
O=C1CN(C(=O)c2ccc(Cl)cc2Cl)C(c2ccc(F)cc2)c2cc(F)ccc2N1 (stereo not given)	-8%	39%[activator]
COc1cccc(-c2nnc(SCC(=O)Nc3ccccc3C#N)n2-c2ccccc2)c1	66%[activator]	59%[activator]
CCN(CC)C(=O)c1cccc(NC(=O)c2cc(C3CC3)nc3ccccc23)c1	-9%	2%
CS(=O)(=O)C1(C(=O)O)CCCC1	5%	-5%
CC(=O)C1=C(C)Oc2ncn3nc(-c4ccco4)nc3c2C1c1ccco1 (stereo not given)	5%	6%
O=C1CN(CC(=O)Nc2ccc(Cl)cc2)CCN1	5%	-9%
O=C(COC(=O)c1cccc(NS(=O)(=O)c2ccccc2)c1)NCc1cccs1	-9%	0%
COc1ccc2nc(C)cc(SCC(NC(C)=O)C(=O)O)c2c1 (stereo not given)	-8%&4%	-8%&-18%
CSCC(=O)NCc1ccco1	-6%	8%

# 13 entries out of the list, sorted by formula weight, ascending:
Compound	2A firefly	StopGo RLuc
CS(=O)(=O)C1(C(=O)O)CCCC1	5%	-5%
Clc1ccc(CN2CCc3ccccc3C2)cc1	25%	-5%
O=C1CN(CC(=O)Nc2ccc(Cl)cc2)CCN1	5%	-9%
Cc1cc(C(=O)Nc2c(C)nn(Cc3ccc(F)cc3)c2C)no1	1%	4%
COc1ccc2nc(C)cc(SCC(NC(C)=O)C(=O)O)c2c1 (stereo not given)	-8%&4%	-8%&-18%
COc1nc2cc(C)c(C)cc2nc1C(=O)Nc1c(C)cccc1C	-2%	-13%
O=C(NCC(F)(F)F)C1CCN(c2ncnc3sc4c(c23)CCC4)CC1	?	?
CCN(CC)C(=O)c1cccc(NC(=O)c2cc(C3CC3)nc3ccccc23)c1	-9%	2%
COc1ccc(OC)c(/C=C/C(=O)Nc2ccc(C(=O)OCCC(C)C)cc2)c1	19%&-6%	6%&7%
CCC(=O)Nc1nc2c(OC)cc(NS(=O)(=O)c3cc(F)ccc3F)cc2s1	24%	0%
O=C(COC(=O)c1cccc(NS(=O)(=O)c2ccccc2)c1)NCc1cccs1	-9%	0%
O=C1CN(C(=O)c2ccc(Cl)cc2Cl)C(c2ccc(F)cc2)c2cc(F)ccc2N1 (stereo not given)	-8%	39%[activator]
Cc1ccccc1CC(=O)Nc1cc(S(=O)(=O)N2CCCCC2)ccc1N1CCN(C)CC1	-20%	0%

# (further entries)
structure | 2A firefly | StopGo RLuc
O=C(CSC1=NS(=O)(=O)c2ccccc2N1Cc1ccccc1)Nc1ccc(F)cc1F | -27% | -26%
N#Cc1cccc(CNCc2ccc(CN3CCCC3)cc2)c1 | -12% | -16%
CC1CCc2onc(C(=O)Nc3cccc(Cl)c3)c2C1 (stereo not given) | 171%[activator] | -1%
CCCN1C(SCC(=O)N2CCC(C)CC2)=NS(=O)(=O)c2ccccc21 | 12% | 0%
CC(=O)N1CCC(N(Cc2ccco2)C(=O)Nc2cccc(C)c2)CC1 | 16% | 24%
Cc1ccc(S(=O)(=O)C(CNC(=O)C(=O)NCc2ccc(Cl)cc2)c2cccs2)cc1 (stereo not given) | -16% | -11%
Cc1cc(C)c2oc(-c3cccc(NC(=O)c4ccc(Br)o4)c3)nc2c1 | 68%[activator] | 5%
CCc1ccc2oc(C(=O)N(Cc3ccc(F)cc3)C3CCS(=O)(=O)C3)cc(=O)c2c1 (stereo not given) | -13% | -5%
COc1ccc(-c2cc(-c3ccc(F)cc3)nc3c2COc2ccccc2-3)cc1 | -5% | 0%
Cc1ccc(-n2c(SCc3nnnn3-c3ccccc3)nnc2N2CCCC2)cc1 | 22% | 31%[activator]
COc1cccc2cc(C(=O)N3CCN(c4cccc(C(F)(F)F)c4)CC3)c(=O)oc12 | -1% | -1%
COc1cc(C(=O)/C=C/c2ccc(SC)cc2)ccc1O | 67%[activator] | -1%
COc1ccccc1CNC(=O)c1nnn(CC(=O)Nc2c(C)cccc2C)c1N | -9% | -4%
C(=N\N=C(c1ccccc1)c1ccccc1)/c1ccncc1 | 8% | -8%
COc1ccc(-c2ccc3c(N)c(C(=O)NCc4ccc(C)cc4)sc3n2)cc1 | 41%[activator] | -8%
Cc1cccc(-c2nc3c(cnn3-c3ccccc3)c(=O)n2-c2cccc(Cl)c2)c1 | 34%[activator] | -18%
Cc1cccc(C)c1OCC(=O)Nc1nc(-c2ccc(Br)cc2)ns1 | -12% | -7%
COCCOc1cc(NC(=O)c2n[nH]c(=O)c3ccccc23)ccc1OC | 10% | -2%
CCN(CC)c1ccc(NS(=O)(=O)c2cc(-c3onc(C)c3C)ccc2OC)c(C)c1 | -7% | 65%[activator]
COc1ccccc1CNC(=O)c1sc(NC(C)C)nc1C | 16% | 2%
Cc1ccc(NC(=O)CC2Sc3ccccc3NC2=O)c(Br)c1 (stereo not given) | 7% | -1%
CCc1ccc(NC(=O)c2ccc(CN3C(=O)C(C)=C(c4ccc(C)cc4)S3(=O)=O)cc2)cc1 | -8% | -12%
CCC(=O)OCc1cnc(C)c2oc(=O)c(C(=O)Nc3ccccc3C(F)(F)F)cc12 | -3% | -22%
CC(C)c1ccccc1NC(=O)COc1ncnc2ccc(Br)cc12 | -2% | -4%
CC(C)CCOc1ccc(CCN)cc1 | 0% | -11%
CCCNc1nc(-c2ccc(O)c(C(N)=O)c2)cs1 | 72%[activator] | 13%
CCCNC(=O)CSc1nc2nc(C)c(Cc3ccccc3Cl)c(C)n2n1 | -15% | 0%
N#C/C(=C/c1ccccc1OCc1ccccc1Cl)c1nc2ccccc2s1 | 0% | 11%
Cc1ccc(C)n1-c1nnc(N2CCCC(C(=O)Nc3ccc(C(C)C)cc3)C2)s1 (stereo not given) | 150%&174%[activator] | ?
O=C(/C=C/Nc1cccc2ccccc12)C(F)(F)F | 25% | -2%
CNS(=O)(=O)c1cc(-c2nn3c(C)nnc3c3ccccc23)ccc1C | 66%[activator] | 452%[activator]
Cc1cccc(N2CCN(C(=O)Nc3cn(CC(C)C)c(=O)c4ccccc34)CC2)c1C | 0% | -29%
COc1ccccc1NC(=O)CN(Cc1ccco1)C(=O)c1cc(=O)c2ccccc2o1 | 28% | 4%
CCOC(=O)c1sc2cccc(F)c2c1S(=O)(=O)NCc1ccccc1Cl | -2% | 275%[activator]
Cc1ccc2c(C=O)c[nH]c2c1 | 6% | -2%
COC(=O)Cn1c(=O)c2c3c(sc2n(Cc2ccccc2)c1=O)CCC3 | -2% | 13%
CCOC(=O)c1c(NC(=O)c2cc(C(C)C)on2)sc(C(C)=O)c1C | -22% | -4%
COc1ccc(Nc2nc(N)c(C(=O)c3ccc(Br)cc3)s2)cc1 | 0% | 13%
Cc1ccc(-n2c(C)nc3c(cnn3-c3ccccc3)c2=O)cc1 | 11% | -1%
Cc1ccc(-c2nc(CCNC(=O)C(=O)Nc3c(C)cccc3C)cs2)cc1 | -15% | 0%

# The final 2 records of the part before are carried over, then new ones follow:
structure | 2A firefly | StopGo RLuc
Cc1ccc(-n2c(C)nc3c(cnn3-c3ccccc3)c2=O)cc1 | 11% | -1%
Cc1ccc(-c2nc(CCNC(=O)C(=O)Nc3c(C)cccc3C)cs2)cc1 | -15% | 0%
Cc1cc(C)cc(NC(=O)Cn2cc(C(=O)c3cccs3)c3ccccc32)c1 | -10% | -1%
CCCN1C(=O)C(C)=C(C)C1c1cn(C)c2ccccc12 (stereo not given) | 1% | 4%
O=C(NCC(c1cccnc1)N1CCc2ccccc2C1)C(=O)Nc1ccccc1 (stereo not given) | 45%[activator] | -4%
CN(Cc1cccc(Cl)c1Cl)c1ccc(S(N)(=O)=O)cn1 | 0% | 23%
Cc1ccc(C)c(/C=C/c2ccc3cccc(O)c3n2)c1 | 0% | -15%
CC(C)c1ccc(NC(=O)C2CC(=O)NC(N3CCN(c4ccc(F)cc4)CC3)=N2)cc1 (stereo not given) | -5% | -3%
COc1ccc(-n2nc(C(=O)N3CCN(c4cccc(C(F)(F)F)c4)CC3)c3c4ccccc4n(C)c3c2=O)cc1Cl | -4% | -2%
Cc1ccc(N2CCN(C(=O)CCc3c(C)nc4ncnn4c3C)CC2)c(C)c1 | -15% | -10%
Cc1ccc(Nc2sc(C(=O)c3ccccc3)c(N)c2C(N)=O)cc1 | ? | 40%[activator]
